# Source: PubChem BioAssay (National Center for Advancing Translational Sciences (NCATS))
# HPGD inh = qHTS Assay for Inhibitors of HPGD (15-Hydroxyprostaglandin Dehydrogenase) | 15-hydroxyprostaglandin dehydrogenase [NAD(+)] (Homo sapiens), P15428 | purified HPGD, NADH fluorescence kinetic, PGE2 substrate | Potency, µM, without a hit: at the highest dose activity change, negative = inhibition, most hits filed as inhibitors | 4.3% of 150,000 active; active = well fitted inhibition curve with a large enough effect (not every such curve was filed as active); inconclusive = small, poorly fitted or top-dose-only effect, or another doubt; inactive = no such curve, though single readings can be large or run the other way;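 further: top concentration of the series not given in the record; plate controls included wells without enzyme; inactives centre near -10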
# Target sequence (P15428 whole entry, looked up): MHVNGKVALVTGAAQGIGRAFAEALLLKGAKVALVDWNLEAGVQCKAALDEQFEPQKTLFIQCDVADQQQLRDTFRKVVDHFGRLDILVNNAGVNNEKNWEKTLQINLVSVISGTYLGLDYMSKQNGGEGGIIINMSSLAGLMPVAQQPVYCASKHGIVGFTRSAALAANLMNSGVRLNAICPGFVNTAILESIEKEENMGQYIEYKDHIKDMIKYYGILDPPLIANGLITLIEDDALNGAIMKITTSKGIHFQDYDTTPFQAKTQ
#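 20 nM HPGD preincubated 15 min at room temperature with compound in 50 mM Tris-HCl pH 8, 0.01% Tween 20. Started with 1 mM NAD+ and 30 uM prostaglandin E2; NADH fluorescence (360/450 nm) read 5 times over 30-s intervals, last minus first.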
# An asterisk follows results filed as active; u = inconclusive; & = joins results of further samples. On the % scale 0 is the no-effect control and ±100 the full control effect; potency means the concentration at half of the fitted maximal effect. The list is partial; the hit share may differ from the screen's.
SMILES,HPGD inh
Cc1ccc(C2C3=C(Nc4[nH]n(-c5ccccc5)c(=O)c42)c2ccccc2C3=O)cc1 (centres undefined),-24%
Cc1ccc(CNC(=O)c2ccc(OCC3CCCO3)cc2)cc1 (centres undefined),0%
CN(C)S(=O)(=O)N(CC(=O)Nc1ccc(F)c(F)c1)c1ccccc1,0%
COCCCNC(=O)CCN1C(=O)COc2ccccc21,-3%
N=c1sccn1CC(=O)NC(=O)NC1CCCC1,-7%
CCSc1nc(N)c2c(C)c(C)sc2n1,-22%
CC1=C(C(=O)NCCc2ccc(C)cc2)C2(CCC(C)CC2)OC1=O (centres undefined),-6%
COc1ccc(CN(C(=O)CSc2nnc(-c3ccccc3F)o2)c2ccc(F)cc2)cc1,u
CC1(C)CC(=O)C2=C(C1)Oc1ncn(CCO)c(=N)c1C2c1ccccc1 (centres undefined),-4%
COc1ccc(-n2c(CCc3ccccc3)nnc2SCC(=O)c2ccccc2)cc1,-5%
COc1ccc(-c2nc3c(n2O)CCC/C3=N\O)cc1,u
Cc1nnc(C)n1/N=C/c1ccc(O)cc1,-13%

# Grouped by structure, those above containing fluorine
SMILES,HPGD inh
CN(C)S(=O)(=O)N(CC(=O)Nc1ccc(F)c(F)c1)c1ccccc1,0%
COc1ccc(CN(C(=O)CSc2nnc(-c3ccccc3F)o2)c2ccc(F)cc2)cc1,u

# Additional results follow:
SMILES,HPGD inh
CC(=O)NCC(=O)NC(C(=O)Nc1ccc2c(c1)OCCO2)c1ccc(C)cc1 (centres undefined),-7%
CCOc1cc2c(cc1OCC)C(c1ccccc1)N(c1ccccc1)C(=O)C2 (centres undefined),-2%
Cc1ccc2[nH]c(=O)c(CNC(C)C)cc2c1,-19%
CC(C)(C)NC(=S)NCc1cccnc1,-12%
Cc1cccc2cc(C#N)c(SCc3nnc(-c4ccccc4[N+](=O)[O-])o3)nc12,u
OC(CNCc1ccco1)Cn1c2ccccc2c2ccccc21 (centres undefined),-18%
O=C1NC(c2cccnc2)C(C(=O)c2cccs2)C(O)(C(F)(F)F)N1 (centres undefined),-11%
Cc1nnc(SCC(=O)c2c(N)n(C)c(=O)n(C)c2=O)n1Cc1ccccc1,2%
c1ccc(-c2noc(COc3ccc4c(c3)OCO4)n2)cc1,-26%
CCCN1C2=C(C(=O)CCC2)C(c2ccc(O)c(Br)c2)C2=C1CCCC2=O,-14%
CCCc1nc(SCC(=O)N2CCC(Cc3ccccc3)CC2)c2c(=O)n(C)c(=O)n(C)c2n1,-17%
Clc1ccccc1Nc1nnc(-c2ccncc2)s1,u
COc1ccccc1CN1CC[C@@]2(CCCN(C(C)=O)C2)C1,-3%
COc1ccc(CC(=O)OCc2cc3ccccc3[nH]c2=O)cc1,-30%
CC1=CC(C)(C)N=C(NC#N)N1,4%
COc1cc(OC)cc(C(=O)Nc2nc3ccccc3[nH]2)c1,-15%
CCOC(=O)c1[nH]c(C)c(C(=O)NC)c1C,-6%
CCCOc1ccc(CSC(CC(=O)O)C(=O)O)cc1 (centres undefined),6%
CC1=CC(C)(C)NC(=S)N1c1ccc2ccccc2c1,-17%
Cn1c(Cn2c(=O)sc3ccccc32)nnc1SCc1ccc(F)cc1,-13%
N/C(Cc1cccs1)=N\OC(=O)COc1ccccc1Cl,-25%
Cc1ccc(-c2nc(CS(=O)CC(=O)NCCN(CC(C)C)CC(C)C)c(C)o2)cc1 (centres undefined),-29%
Cc1cc(C)n(-c2nc(N(c3ccccc3)c3ccccc3)nc(-n3nc(C)cc3C)n2)n1,-30%
CCOC(=O)c1cnn(-c2nc(C)nc3sc4c(c23)CCC4)c1N,-10%
Cc1nn(-c2ccccc2)c(=S)c2ccccc12,0%
COc1ccc(NC(=O)CSc2nnc(C3CCCCC3)o2)c(OC)c1,-13%
CCOC(=O)c1[nH]c2ccc(OC)cc2c1NC(=S)N1CCN(c2ccccc2OC)CC1,-19%
CC(C)(O)P(C)(=O)c1ccccc1 (centres undefined),-6%
Cc1c(S(=O)(=O)O)ccc(N=Nc2c(O)c(C(=O)O)cc3ccccc23)c1Cl,-12%
Cc1c(N=C2C(=O)Nc3ccccc32)c(=O)n(-c2ccccc2)n1C,-2%
CC1=CC2=NC(=O)/C(=C\c3cccn3CCOc3cc(C)cc(C)c3)C(=N)N2O1,-11%
COc1cc(NC(=O)c2ccc(C)cc2)c(OC)cc1NC(=O)CN1CCCCC1,-18%
COC(=O)C1=C(C)NC(=O)/C1=C\c1cc(C)n(-c2ccccc2C)c1C,-13%
O=C(NCCCN1CCOCC1)C(=O)N/N=C/c1c2ccccc2cc2ccccc12,0%
CC[C@H]1CN(C)[C@H]2Cc3c([nH]c4ccccc34)C(=O)C[C@H]1[C@H]2C(=O)OC,-14%
Fc1ccc(Cn2nnnc2CN2CCc3ccccc3C2)cc1,-2%

# Reprinted at random: 7 entries already listed, in no set order.
SMILES,HPGD inh
COC(=O)C1=C(C)NC(=O)/C1=C\c1cc(C)n(-c2ccccc2C)c1C,-13%
Cc1nn(-c2ccccc2)c(=S)c2ccccc12,0%
CC(C)(O)P(C)(=O)c1ccccc1 (centres undefined),-6%
COc1cc(NC(=O)c2ccc(C)cc2)c(OC)cc1NC(=O)CN1CCCCC1,-18%
CCOC(=O)c1[nH]c2ccc(OC)cc2c1NC(=S)N1CCN(c2ccccc2OC)CC1,-19%
Cc1c(S(=O)(=O)O)ccc(N=Nc2c(O)c(C(=O)O)cc3ccccc23)c1Cl,-12%
CC1=CC2=NC(=O)/C(=C\c3cccn3CCOc3cc(C)cc(C)c3)C(=N)N2O1,-11%

# Carrying on:
SMILES,HPGD inh
COc1cc(/C=C2\SC(=S)N(Nc3ccccc3)C2=O)cc(OC)c1OC,-17%
COc1cc(S(=O)(=O)NC2CCCC2)ccc1Cl,-14%
Cc1ccnc(NC(=O)CCc2c(C)nc3ncnn3c2C)c1,-9%
Cc1cccc(OCc2nnc(SCC(=O)Nc3sc(C)c(C)c3C#N)n2C)c1,-2%
COc1ccc(CN(C(=O)c2oc3ccccc3c2C)C2CCS(=O)(=O)C2)cc1 (centres undefined),-1%
C/C(=N\NC(=O)c1nn(C)cc1Br)c1ccncc1,-13%
COc1cc(C)c(N)cc1C(C)C,-2%
C/C(=N\NC(=O)c1nonc1N)c1cccs1,-6%
CC(=O)Oc1ccc(CCC(C)OC(C)=O)cc1 (centres undefined),-10%
COc1cccc(CNC(=O)C2CCN(S(=O)(=O)N3CCC4(CC3)OCCO4)CC2)c1,-13%
CC1(C)Oc2ccc3ccc(=O)oc3c2/C(=C/NC2CCCCC2)C1=O,-14%
CC1(C)OC(=O)C(=CNn2cnc3ccccc3c2=O)C(=O)O1,-4%
CC(=O)Oc1ccc2occ(C(=O)c3cccs3)c2c1,-9%
COc1cc2c(cc1NC(=O)C(c1ccccc1)c1ccccc1)CCCC2,-17%
CCOc1ccc(CNC(=O)c2ccc(Sc3ccc(Cl)cc3)c(NC(C)=O)c2)cc1,-16%
CCN(CC)C(=O)c1ccc(O)c(OC)c1,-9%&-25%&0%
O=C(NCc1ccccc1)C12CC3CC(CC(C3)C1)C2,u
COc1ccc(Cl)cc1N(C)C(=O)CCNC(=O)Cn1cnc2ccccc2c1=O,-6%
CCOc1cc(C(=O)N/N=C/C(Br)=C/c2ccccc2)cc(OCC)c1OCC,-10%
CC(=O)N(c1ccc2oc(=O)sc2c1)S(=O)(=O)c1cccs1,-23%
CC(=O)c1c(C)[nH]c(C(=O)CSc2nnc3ccccn23)c1C,-7%
CN1CCN(CCC(=O)Nc2ccc(OCc3ccccc3)cc2)CC1,-7%
CC(=O)NCCN=Cc1sc2ccccc2c1O,-9%
Cc1ccc2nc(-c3ccc(SCC(=O)Nc4ccc5c(c4)OCCO5)nc3)[nH]c2c1,u
CC(=O)c1ccccc1OC(=O)c1ccco1,6%
Cc1nn(C(=O)c2ccc3c(c2)OCO3)c(N)c1-c1ccccc1,u
O=C(CCSCCC(=O)N1CCCC1)N1CCCC1,-2%
Cn1cnnc1SCC(=O)N1c2ccccc2-c2c(ssc2=S)C1(C)C,-24%
COc1ccc(C(=O)Nc2ccc(NC(=O)c3cccs3)cc2)cc1Cl,u
COCC(=O)N1CCC2(CCCN(C(=O)Nc3ccc(OC)cc3)C2)CC1,-7%
Brc1ccc(-c2nnc(-c3ccc4c(c3)OCO4)o2)o1,-9%
CCOC(=O)c1c(NC(=O)COC)sc(C(C)=O)c1C,u
CCCCn1nc2cc(C(=O)N(CC)c3ccc(OC)cc3)ccc2c1OCC,u
CCn1c2ccccc2c2nnc(NCCCO)nc21,-10%
CC(C)C(=O)Nc1cccc(C(=O)Nc2ccccc2C(=O)O)c1,-26%
CCOC(=O)c1sc2nc3n(c(=O)c2c1C)CCCCC3,-14%
Cc1ccc(NC(=S)N2CCOCC2)cc1,-7%
CCCCn1c(=O)[nH]c2nc3cc(N)ccc3nc2c1=O,-18%
COCCn1c(C)cc(C(=O)COC(=O)CCN2C(=O)c3ccccc3C2=O)c1C,3%
OCc1cc(CO)c(O)c(CCc2ccccc2)n1,u
c1ccc(-c2nnc(N3CCOCC3)nc2-c2ccccc2)cc1,-2%
O=C1CCCc2c1cc(C(=O)Nc1ccc(Cl)cn1)c(=O)n2-c1ccccc1,-19%
O=C1c2ccccc2C(Nc2cccc(C(F)(F)F)c2)N1Cc1ccco1 (centres undefined),-14%
CCN(CC)c1nc(C#N)nc(N(CC)CC)n1,-15%
COc1ccc(/C=N/NC(=O)c2[nH]nc3c2CCc2ccccc2-3)cc1OC,u
COc1ccc(NS(=O)(=O)c2cccc(NC(=O)CCS(=O)(=O)c3ccccc3)c2)cc1,-11%
CCC(Sc1ncnc2c1nnn2-c1ccc(F)cc1)C(=O)OC (centres undefined),-12%
O=C(COc1ccc(Cl)cc1Cl)N(c1ccccn1)C1CCCCC1,-10%

# Another view of part of the listing above.
Molecule	HPGD inh
Cc1nn(C(=O)c2ccc3c(c2)OCO3)c(N)c1-c1ccccc1	u
COc1cc(S(=O)(=O)NC2CCCC2)ccc1Cl	-14%
C/C(=N\NC(=O)c1nonc1N)c1cccs1	-6%

# The listing continues:
SMILES,HPGD inh
Cc1cc(OC(C)C)c2c(-c3ccccc3)cc(=O)oc2c1,u
Cc1cccc(-n2cnc(C(=O)N/N=C/c3ccccc3)c2)n1,-8%
Cc1ccc(S(=O)(=O)NNC(=O)c2cc3cc4ccccc4nc3s2)cc1,-19%
Cc1ccc(-c2nc3sc4c(N)ncnc4c3c3c2CCCC3)cc1,-10%
O=C(CCCOc1ccc(Cl)cc1Cl)NN1CCOCC1,-26%
COc1ccc(C(=O)CC(Nc2ccc([N+](=O)[O-])cc2)c2ccc(OC)cc2)cc1 (centres undefined),-12%
O=C(OCn1ncc(Br)c(Br)c1=O)c1ccc(F)cc1,22µM*
Cc1cc(C)n(C(=O)c2ccc(S(=O)(=O)NCC3CCCO3)cc2)n1 (centres undefined),-17%
O=C(Cn1ncc2c3ccccc3n(Cc3ccccc3)c2c1=O)N1CCN(c2ncccn2)CC1,u
c1ccc2c(c1)CC(N1CCCCC1)c1ccccc1N2 (centres undefined),-9%
CC(C)Cc1nc(N2CCN(C(=O)C(C)C)CC2)c(C#N)c2c1CCC2,u
COc1ccccc1C(c1nnnn1CS(=O)(=O)c1ccc(C)cc1)N1CCSCC1 (centres undefined),-11%
COc1ccc(S(=O)(=O)Cc2ccc(C(=O)N3CCN(C(=O)c4ccco4)CC3)o2)cc1,-16%
COc1ccc(N(C(=O)/C=C/C(=O)Nc2cc(C)on2)C(C(=O)NC2CCCC2)c2ccccc2C)cc1 (centres undefined),3%
COc1cccc(CNC(=O)C2CCN(S(=O)(=O)c3ccc4c(c3)CCC(=O)N4)CC2)c1,-6%
O=S(=O)(c1ccc(NC2CCCc3ccccc32)nc1)N1CCOCC1 (centres undefined),-6%
Cc1noc(C)c1COc1ccc(C(=O)OCC(=O)N2c3ccccc3NC(=O)C2(C)C)cc1,-18%
C=C1C2(C(=O)Nc3ccc(SC(F)F)cc3)CCC(C2)C1(C)C (centres undefined),-1%
CCC(C)c1ccc(OCCn2cc(/C=N/NC(=O)CSc3nnc(C)s3)c3ccccc32)cc1 (centres undefined),-28%
O=S(=O)(Nc1ccccc1)c1ccc(F)cc1,-15%
CCc1ccc(NC(=O)C(C)Nc2ccc(S(=O)(=O)NC(C)=O)cc2)cc1 (centres undefined),-9%
O=C(CSc1nc2c(sc3ccccc32)c(=O)n1Cc1ccccc1)NCC1CCCO1 (centres undefined),-20%
CCOC(=O)C1=NN(c2cccc(Cl)c2)C2=NC(C)=C(C(=O)OC)C(c3cccs3)N12 (centres undefined),-1%
CCOC(=O)c1c(-c2cccs2)csc1NC(=O)C(C)(C)C,u
Cn1c(=O)[nH]c(=O)c2[nH]c(NCCCN3CCOCC3)nc21,-8%
C=CCc1c(C)nc(-c2ccccc2)nc1Nc1ccccc1O,-12%
Cc1ccc(Cn2nnnc2CN2CCC(NC(=O)c3ccc(Br)cc3)CC2)cc1,-1%
O=S(=O)(Cc1ccccc1)c1cnc2ccccc2n1,25µM*
COC(=O)Cn1nc(-c2ccccc2)n(-c2ccccc2)c1=S,6%
COc1ccc(Oc2ncc3nc(C)c(=O)n(Cc4ccc(F)cc4)c3n2)cc1,-19%
COc1cc2c(cc1OC)-c1c(oc3cc(O)cc(O)c3c1=O)CO2,-16%
COc1ccc(NC(=O)c2cc(OC)c(OC)c(OC)c2Br)cc1OC,3%
CC1CCCN(C(=O)CSc2nnc3n(C4CCCC4)c(=O)c4ccccc4n23)C1 (centres undefined),20µM*
CCOc1ccc(N(C(C)C(=O)NC2CCCCCC2)S(C)(=O)=O)cc1 (centres undefined),-11%
CCOC(=O)N1CCc2c(sc3c2c(=O)n(Cc2ccccc2)c(=O)n3Cc2ccccc2F)C1,-12%
